BJeLR lethal: kills HRASV12-expressing BJeLR cells; 300,000 tested, 0.17% active; BJeLR (HRASV12) viability, CellTiter-Glo ATP luminescence, 48 h; reference of the scale not given here; inhibition, % (no concentration beside the values);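 active = replicate mean above 50%; inconclusive = above 50% but judged a plate artefact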;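 also: 50 nL library stock added to about 25 µL; numbers are from one replicate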
RN4220 kill: kills Staphylococcus aureus RN4220 | S. aureus RN4220 growth, OD600, 16 h | 330,000 tested, 0.33% active | inhibition, % (no concentration beside the values);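 active = z-score of -3 or lower and OD600 up to 0.18 on both plates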;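 also: plate controls were untreated cells for no effect and reference antibiotic for full effect; stock transfer was 100 nL into about 80 µL; one replicate is shown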
Bead autofluor: counter-screen for toxin protease inhibitors: compound fluorescence | compound autofluorescence counterscreen, microsphere flow cytometry; stronger effect = higher value | fluorescence intensity (test concentration not listed) | 360,000 tested, 3.1% active;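 active = at least 3 SD above the mean of all compounds, about 16000 in these data; inconclusive = too few beads counted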;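 also: 100 nL of 1 mM stock went into each well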
Sa ugtP lethal: compounds lethal to S. aureus RN4220 ugtP deletion mutant. 330,000 tested, 0.54% active. OD600 growth, 16 h; some inactives read as strong as hits. growth inhibition, % (concentration not given with the values);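 active = z-score under -3 and OD600 up to 0.15 on both plates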;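 also: plate controls were untreated wells for no effect and antibiotic for full effect; wells of about 80 µL received 100 nL stock; the first replicate is given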
Mtb hypoxia inh: reduces hypoxia-regulated biosensor signal in M. tuberculosis | M. tuberculosis hypoxia-regulated fluorescent reporter, fluorescence | 300,000 tested, 0.1% active | fluorescence inhibition, % (concentration not given with the values);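 active = 35 to 45% if threefold the growth effect, above 45% if 1.5-fold the growth effect; inactive = the rest, general growth blockers included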;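 also: wells of about 50 µL received 100 nL stock; 0% = vehicle wells and 100% = reference inhibitor wells; whole bacteria with a GFP reporter of the hypoxia response; strong numbers were not always called active; many hits fall short of the cut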
PrP 5UTR inh: inhibition of PrP 5' UTR reporter expression; inhibition, % (test concentration not listed); cell-based PrP 5' UTR mRNA reporter, plate reader; 340,000 tested, 0.35% active;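 active = every replicate at 50% or more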;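 also: 0 = median of the neutral control wells; tested in H4 reporter cells; numbers are from one replicate; inactives centre near -14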
Mtb hypoxia inh growth: second read-out of Mtb hypoxia inh, no call of its own (marks repeat the call); growth inhibition, %; measured here: M. tuberculosis growth (absorbance);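 0% = vehicle and 100% = reference antibiotic; read after six days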
An asterisk follows results filed as active; ? = inconclusive; . = not tested or not shown.

item	Compound	BJeLR lethal	RN4220 kill	Bead autofluor	Sa ugtP lethal	Mtb hypoxia inh	Mtb hypoxia inh growth	PrP 5UTR inh
1	CCN1C(=O)N[C@@H](c2cccc(C(F)(F)F)c2)C(C(C)=O)=C1C	1	.	4074	.	.	.	-13
2	S=C(NCCN1CCCCC1)Nc1ccccc1	-4	2.5	2008	3	11	9	-9
3	Cc1occc1-c1nnc(SCC(=O)NC(C)(C)C)n1C(C)c1ccccc1 (configuration not stated)	10	11	3304	-1	8	3	0
4	CN(C1CCCCC1)S(=O)(=O)c1cc2c3c(c1)CCN3C(=O)CC2	10	-1.2	5721	-1	-12	9	2
5	C/C(=C/c1ccccc1)C(=O)N1CCN(c2ccccc2F)CC1	-4	2.8	3936	5	-4	8	-8
6	CCOC(=O)N1CCN(CC(O)COCc2ccc(Cl)cc2)CC1 (configuration not stated)	.	0.4	2890	-7	.	.	-10
7	CCc1cccc(NC(=O)Cn2c3[n+](c4ccc(C(F)(F)F)cc42)CCCCC3)c1	-2	-4.0	2250	-22	0	13	-36
8	Cc1[nH]c2ccc(C(=O)NCCN3CCOCC3)cc2c1C	4	2.4	5733	0	-2	-1	-23
9	COc1ccc(CC(NC(C)=O)C(=O)NC2CCN(C(=O)c3ccncc3)CC2)cc1OC (configuration not stated)	0	.	3659	.	.	.	-24
10	C=CC(C)(C)OC1OC(CO)C(O)C(O)C1O (configuration not stated)	.	10.0	.	4	4	3	.
11	COc1ccc(C(=O)c2c(-c3ccc(OC)cc3)oc3ccccc23)cc1	.	2.5	3880	33	1	4	-11
12	Cc1nn(-c2ccccc2)c2c1C(=NO)CC(C)(C)C2	.	4.1	.	-4	-5	4	.
13	O=C(NCc1ccccn1)Nc1ccc(F)cc1F	-2	1.9	2915	8	-1	-7	-21
14	S=C(Nc1ccc2nccnc2c1)N1CCCC1	-5	1.1	4265	2	7	9	-13
15	O=C(CSc1nnc(-c2c[nH]c3ccccc23)o1)NCC1CCCO1 (configuration not stated)	.	9.2	3856	1	7	5	-37
16	O=Cc1ccc(Cl)c(Cl)c1	.	1.9	5140	3	7	13	-17
17	COc1ccc(NC(=O)c2ccccc2F)cc1Cl	4	2.9	2875	-7	-2	12	-94
18	CCOC(=O)C1CCN(CC(O)COc2ccc(S(=O)(=O)N3CCCC3)cc2[N+](=O)[O-])CC1 (configuration not stated)	.	-0.6	6385	1	-7	1	-9
19	COc1ccc(S(=O)(=O)CCC(=O)NCCc2ccc(S(N)(=O)=O)cc2)cc1	.	3.1	2326	11	.	.	-9
20	COc1ccc(Cl)cc1Nc1nc(-c2cccnc2)cs1	-10	-14	3846	-13	4	6	-8
21	COc1cccc(CN2C(=O)C(C)N(C(=O)c3c(F)cccc3F)c3ccccc32)c1 (configuration not stated)	0	5.1	4122	-6	12	17	-30
22	COc1cccc(CCC(=O)Nc2cccc(S(=O)(=O)N3CCCC3)c2)c1OC	.	4.3	3091	11	3	-6	-20
23	C[C@]12CCC3C(C(=O)C[C@H]4C[C@@H](O)CC[C@]34C)C1CCC2=O (some centres not stated)	.	4.1	2831	6	8	4	-8
24	O=C(CCn1nnnc1CN1CCOCC1)N1CCC(c2ccccc2Cl)C1 (configuration not stated)	-7	0.5	5457	4	-1	9	-14

Quoted from above: compounds 21–24
item	Compound	BJeLR lethal	RN4220 kill	Bead autofluor	Sa ugtP lethal	Mtb hypoxia inh	Mtb hypoxia inh growth	PrP 5UTR inh
21	COc1cccc(CN2C(=O)C(C)N(C(=O)c3c(F)cccc3F)c3ccccc32)c1 (configuration not stated)	0	5.1	4122	-6	12	17	-30
22	COc1cccc(CCC(=O)Nc2cccc(S(=O)(=O)N3CCCC3)c2)c1OC	.	4.3	3091	11	3	-6	-20
23	C[C@]12CCC3C(C(=O)C[C@H]4C[C@@H](O)CC[C@]34C)C1CCC2=O (some centres not stated)	.	4.1	2831	6	8	4	-8
24	O=C(CCn1nnnc1CN1CCOCC1)N1CCC(c2ccccc2Cl)C1 (configuration not stated)	-7	0.5	5457	4	-1	9	-14

Continued.
item	Compound	BJeLR lethal	RN4220 kill	Bead autofluor	Sa ugtP lethal	Mtb hypoxia inh	Mtb hypoxia inh growth	PrP 5UTR inh
25	COc1ccc(C(c2c(O)nc[nH]c2=O)c2c(O)nc[nH]c2=O)cc1	3	2.3	.	2	12	7	.
26	CNC(=S)N/N=C/c1c(C)nn(-c2cccc(Cl)c2)c1Cl	2	.	1910	.	.	.	-28
27	CSc1ncccc1C(=O)OCC(=O)c1cc(C)n(CC2CCCO2)c1C (configuration not stated)	-6	0.9	5802	9	19	6	-59
28	Cn1c2c(c(=O)n(C)c1=O)C(c1cc3c(cc1Br)OCO3)CC(=O)N2 (configuration not stated)	-6	3.3	6133	11	1	-2	-11
29	Cc1ccc(-n2c(CNc3ccc(F)cc3)nnc2SCC(=O)O)cc1	12	7.0	4573	3	12	7	-28
30	O=C(COc1ccc(Cl)cc1)NCc1nnc(SCC(=O)Nc2ccc3c(c2)OCCO3)o1	-6	-3.0	3380	11	.	.	-24
31	Cc1cccc(C)c1Nc1nnc(SCC(=O)NCc2ccco2)s1	1	2.2	3431	1	.	.	-4
32	CCCNC(=O)c1[nH]c(C)c(C(=O)OCC)c1C	15	4.3	.	-3	8	6	.
33	CN(CC(=O)NC1(C)CCS(=O)(=O)C1)S(=O)(=O)c1ccc(Cl)cc1 (configuration not stated)	-4	-0.3	6621	-2	4	1	-5
34	CC(C)=C(NC(=O)c1ccccc1)C(=O)Nc1cccc(C(=O)O)c1	0	-0.7	3146	2	0	9	-29
35	O=C(O)c1ccc2c(c1)C(=O)N(CCC1=CCCCC1)C2=O	-5	6.4	2726	-3	.	.	-6
36	Cc1cccc2cc(CN(CCN3CCOCC3)C(=O)NCc3ccccc3)c(=O)[nH]c12	-1	3.3	3304	2	7	0	8
37	Cc1ccccc1NC(=O)Nc1cc(-c2ccccc2)nn1C	-4	1.7	.	0	-6	12	-19
38	CCN(CC)CCCN(C(=O)c1ccccc1C)c1nc(-c2ccc(OC)cc2)cs1	-4	-0.8	3965	5	0	10	-19
39	CCN(CCO)c1ccc(N=Nc2cc(C)[nH]n2)cc1	-2	2.8	4815	0	18	5	61*
40	Cc1ccc(SCC(=O)Nc2ccc(N3CCN(c4ccccc4)CC3)c(F)c2)cc1	2	0.3	9462	2	0	-8	-8
41	O=C(O)/C=C/C(=O)Nc1ccc(OCc2ccccc2)cc1	10	-3.2	4781	-3	5	18	-14
42	Cc1ccc(NS(=O)(=O)c2cc(C(=O)NCCSc3ccc(C)cc3)ccc2C)cc1	-6	14	5222	-9	10	7	-12
43	NC(=O)C1(N2CCCC2)CCN(Cc2ccccc2)CC1	.	1.5	2791	2	2	6	-5
44	O=C(Nc1nc(=O)c2ccccc2s1)c1ccccc1	-7	-0.8	3576	8	.	.	-104
45	CC(=O)N1CN(C2CCS(=O)(=O)C2)Cc2c1sc1c2CCCC1 (configuration not stated)	-3	0.3	4799	5	.	.	-11
46	N#Cc1nc(/C=C/c2ccccc2)oc1NCCCN1CCOCC1	5	-1.5	5983	-2	-7	-13	-39
47	CCC(=O)c1ccc(OCC(=O)OCC(=O)N2c3ccccc3CC2C)cc1 (configuration not stated)	-14	3.6	.	8	1	5	-16
48	CN1C2CCC1CC(OC(=O)c1cc(Cl)cc(Cl)c1)C2 (configuration not stated)	9	-5.2	?	2	.	.	-24
49	CC[C@@]1(C(=O)OC)N[C@H](CN(C)C(=O)Nc2ccc(F)cc2)[C@@H]2C(=O)N(C)C(=O)[C@@H]21	.	-1.7	3632	4	5	2	-19
50	CC(C)CC(=O)Nc1nc(=S)ss1	6	47	2251	14	.	.	-17
51	Cc1oc(C(C)(C)C)cc1C(=O)N1CCCC1C(=O)O (configuration not stated)	-8	7.5	4231	11	10	1	-16
52	O=S1(=O)C[C@@H](O)[C@@H](Nc2ccccc2)C1	6	0.3	.	1	-4	-5	.
53	CC1(C)Cc2ccccc2C(=NC(Cc2ccccc2)C(=O)O)N1 (configuration not stated)	-4	1.1	3459	-1	14	2	11
54	CC(OC(=O)c1ccccc1NS(=O)(=O)c1cccc(N)c1)C(=O)N(C)Cc1ccccc1 (configuration not stated)	-4	14	9979	-9	3	5	-8
55	CC(C)N(C(=O)Cn1cc(SCC(=O)NCc2ccco2)c2ccccc21)C(C)C	5	11	5265	5	5	3	-20
56	Cc1cc(NC(=O)c2cnn3c(C(F)(F)F)cc(-c4ccccc4)nc23)no1	-8	8.8	9195	13	6	1	-19
57	COCCCn1c(C(=O)NCCC2=CCCCC2)cc2c(=O)n3ccccc3nc21	3	20	5603	-7	3	1	-4
58	COc1ccccc1N(CC(=O)NC(C)(C)C)C(=O)c1ccc(Cl)nc1	10	4.6	4427	-62	15	5	-16
59	COc1ccc(S(=O)(=O)Nc2cccc(-n3cnnn3)c2)cc1	-11	4.1	5941	9	11	-2	-27
60	O=C(O)C1CCCCC1C(=O)NCCc1ccc(F)cc1 (configuration not stated)	-1	1.7	4570	3	0	11	-1
61	CNC(=O)CSc1nnc(-c2cccc(S(=O)(=O)N3CCOCC3)c2)n1-c1ccc(F)cc1	5	-0.7	3648	-6	-2	-1	-31
62	O=C(/C=C/c1ccc2c(c1)OCO2)N1CCOCC1	3	1.3	4846	5	.	.	-30
63	Cc1cnc(=O)[nH]c1SCC(=O)Nc1nccs1	-12	3.4	.	5	0	-5	-3
64	c1csc(CNc2ncnc3nc[nH]c23)c1	8	10.0	4291	-12	0	5	-20
65	O=C(c1ccc2nccnc2c1)N1CCN(Cc2ccc3c(c2)OCO3)CC1	-11	0.4	11083	9	13	13	-9
66	O=[N+]([O-])c1nn(-c2ccccc2)n(O)c1=NCc1ccc2c(c1)OCO2	-7	4.3	9999	12	8	7	-18
67	CC(=O)Nc1ccc(NC(=O)C(C)OC(=O)CCCOc2ccc(Cl)c(C)c2)cc1 (configuration not stated)	-9	0.4	6013	-5	1	-2	-3
68	COc1cccc(NC(=O)COc2ccc3c(c2)CCC3)c1	-15	13	4441	4	4	0	-29
69	CCOC(=O)C1=NN(C(C)=O)C2(CC(=O)N(c3cc(C)cc(C)c3)C2=O)C1 (configuration not stated)	-13	2.9	2656	2	10	9	-17
70	CC(C)COP(=O)(OCC(C)C)C(O)c1ccccc1F (configuration not stated)	-5	-12	2274	-9	3	8	2
71	C=CCn1cc(/C=C2/NC(=O)NC2=O)c2ccccc21	-3	3.2	4620	4	-4	5	-16
72	COC(=O)c1cc2oc3ccccc3c2n1CC(=O)Nc1ccccc1OC	-1	4.5	3488	3	7	3	-7
73	O=C(Nc1ccc(N2CCN(C(=O)c3ccco3)CC2)cc1)c1ccccc1	-13	5.3	5215	1	-4	7	1
74	CC(=O)Nc1cccc(NC(=O)C2C3C=CC(C3)C2C(=O)O)c1 (configuration not stated)	0	1.7	3641	5	-7	-4	-2
75	CCOc1ccccc1C=NNc1cnn(Cc2ccccc2)c(=O)c1Cl	.	1.1	.	2	5	-4	.
76	O=C(N/N=C1\CCCCc2ccccc21)c1ccccn1	-6	.	3357	.	.	.	-21

Source: PubChem
